# VACV E9 pol inh: vaccinia E9 polymerase processive synthesis inhibitors, primary screen, biochemical, absorbance; 46,000 compounds, 0.94% hits; normalized absorbance, % (concentration not given with the values); in vitro processive DNA synthesis, absorbance read-out; active compounds read low; some inactives read as strong as hits; Vaccinia virus DNA polymerase (E9) processive complex;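 active means replicate mean up to 90% and picked by the depositor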;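 further: 100% = median of the test wells of a plate; 100 nL library stock went into each well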
# Starred values were filed as active, the others as inactive. This is a subset (hit frequency here may not be typical).
SMILES,VACV E9 pol inh
O=C1CC(=O)CC(c2c(F)cccc2Cl)C1,86.0
CCC(=O)C(CC(C)N(C)C)(c1ccccc1)c1ccccc1 (stereo unspecified),98.4
CC(/C=C1\SC(=S)N(CC(=O)N2CCN(c3ccccc3)CC2)C1=O)=C\c1ccccc1,100.5
CCCN(CCC)CCNc1cc(C)nc2c(-c3ccccc3OC)c(C)nn12,104.4
CC1=N/C(=C/c2cc3ccccc3nc2Sc2ccc(C)cc2)C(=O)O1,100.1
CSc1ccccc1C(=O)Nc1ccc(S(=O)(=O)N2CCCC2)cc1,101.3
COC(=O)c1cc2oc(C)cc2n1CC(=O)N1CC(C)CC(C)C1 (stereo unspecified),90.0
CC(=O)Nc1cc(C(=O)NCCCN2CCC(C)CC2)ccc1S(=O)(=O)c1ccc(Cl)cc1,108.5
Cc1cc(-c2noc(-c3snnc3C)n2)no1,99.5
Nc1ccc(CCc2nc3ccccc3o2)cc1,100.2
O=C(CSCC(=O)c1ccc2c(c1)Cc1ccccc1-2)Nc1ccccc1,99.3
O=C(c1cccnc1)N1CCc2ccccc2C1,107.7
O=C(Cc1ccccc1)NCC1(c2ccccc2)CCCC1,101.5
Cc1nc2c([nH]1)C(c1ccc(C(C)C)cc1)C(C#N)=C(N)O2 (stereo unspecified),101.7
COc1ccc(OCC(O)CN2C(=O)c3ccccc3S2(=O)=O)cc1 (stereo unspecified),89.9
Cc1ccc2nc(-c3cccnc3)oc2c1,91.0
CSc1c(C#N)c(-c2cc(C(C)(C)C)oc2C)nn1-c1ccccc1,100.3
COC(=O)c1ccc(C(=O)Nc2ccc3nc(-c4ccccn4)[nH]c3c2)cc1,100.2
CC(C)(C)NCC(O)c1ccc(O)c(CO)c1 (stereo unspecified),101.2
COc1cc2ccc(=O)oc2c(OC(C)=O)c1OC(C)=O,98.3
COc1ccc(-c2noc(CN(C(=O)Nc3cccc(C)c3)C(C)C)n2)cc1,98.7
CCNC(=S)Nc1c(C)n(C)n(-c2ccccc2)c1=O,100.0
OCc1cn(-c2ccccc2)nc1-c1cccnc1,104.1
CC(C(=O)NC1CCCC1)n1c2ccccc2c2cnn(C)c(=O)c21 (stereo unspecified),97.1
CCc1ccc(NC(=O)NC(C)(C)C)cc1,99.2
Cc1cc(C(=O)NN)nn1C,99.6
O=C(CN1CC(c2ccccc2)CC1=O)NCCc1ccccc1 (stereo unspecified),105.4
CC(C)CCNC(=O)c1cccc2c1SCCC2=O,115.0
Clc1ccccc1/C=N/c1c(-c2ccco2)nc2ccccn12,99.8
COc1ccc(C(=O)Cc2cnn(-c3ccccc3)c2)c(O)c1,106.1
O=C(O)C(Cc1ccccc1)Nc1ncnc2c1oc1ccccc12 (stereo unspecified),91.5
CC1(C)CC(=O)C2=C(C1)c1c(ccc3ncccc13)NC2C1CC=CCC1 (stereo unspecified),100.3
C/C(=N\S(=O)(=O)c1ccc(C)cc1)Nc1ccc(O)c(C)c1,99.4
Cc1cc2cc(CNC(=O)c3ccco3)ccc2n1C,99.8
COC(=O)c1ccc(C(=O)Nc2ccc3c(c2)nc(C)n3-c2ccccc2)cc1,98.6
COCCN1C(=O)/C(=C\c2ccc3c(c2)OCO3)SC1=S,99.9
Cc1ccc(C(=O)N2CCCN(c3ccc(C(F)(F)F)cn3)CC2)cc1C,98.8
COC(=O)c1ccc(CSc2ccc(Br)cc2)o1,107.8
NC(=O)CCS(=O)(=O)c1ccc(Cl)cc1,102.6
COc1ccc(OC)c(Nc2nc(-c3cccc(Cl)c3)c3c(n2)-c2ccccc2OC3)c1,96.6
CC(C)Cn1c(=O)c(C#N)cc2c(=O)n3ccccc3nc21,103.4
COc1ccc(C(=O)CN2Cc3ccccc3C2=N)cc1OC,100.6
COC(=O)/C=c1\sc2ncnn2c1=O,100.3
CC1CN(C(=O)NC23CC4CC(CC(C4)C2)C3)c2cc(Cl)ccc2O1 (stereo unspecified),102.3
CC(=O)N1c2c(ccc3ccccc23)C(C)=CC1(C)C,100.0
O=C(O)CCCCc1nc2ccccc2s1,87.2
O=S1(=O)CCN(C(CCO)c2cccc(C(F)(F)F)c2)CC1 (stereo unspecified),85.2
Cc1ccc(C(=O)/C(=C/N(C)C)Sc2ccc(C(F)(F)F)cn2)cc1,101.2
CCOC(=O)c1c(SC)nc2c(C(F)(F)F)cccc2c1Oc1ccc(OC)cc1,99.4
CC(=O)Oc1c2c(c[n+](C)c1C)COC(C)(C)OC2,99.9

# More compounds follow.
SMILES,VACV E9 pol inh
COC(=O)c1cn(-c2ccccc2)c(=O)c2ccccc12,101.9
N#C/C(=C\c1ccc(/C=C(\C#N)S(=O)(=O)c2ccccc2)cc1)S(=O)(=O)c1ccccc1,111.2
CCOc1ccccc1NC(=O)c1cc2cc(Br)ccc2oc1=O,100.7
O=C1OC(c2ccccc2)=N/C1=C\C=C\c1ccccc1,96.9
CCNc1cc(N)[n+](CC)c2n[nH]c(/N=C/c3cc(Cl)cc(Cl)c3O)c12,69.0*
CCCNS(=O)(=O)c1ccc2c(c1)SCC(=O)N2,106.0
Cc1ccc(CNC(=O)CC2CCCC2)cc1,90.2
Cc1ccc(Cn2cc(CCC(=O)N3CCc4ccccc43)c3ccccc32)cc1,101.2
CCOc1ccc(N(C(C)=O)C2C=CS(=O)(=O)C2)cc1 (stereo unspecified),98.1
COc1c(C(=O)NCCOc2ccccc2)ccc2ccccc12,88.1

# Single entries from the results shown:
# Reading for `CCc1ccc(NC(=O)NC(C)(C)C)cc1` under VACV E9 pol inh: 99.2
# Reading for `COC(=O)c1cc2oc(C)cc2n1CC(=O)N1CC(C)CC(C)C1` (stereo unspecified) under VACV E9 pol inh: 90.0
# Reading for `CCCN(CCC)CCNc1cc(C)nc2c(-c3ccccc3OC)c(C)nn12` under VACV E9 pol inh: 104.4
# Reading for `COC(=O)c1ccc(C(=O)Nc2ccc3nc(-c4ccccn4)[nH]c3c2)cc1` under VACV E9 pol inh: 100.2
# Reading for `O=C(CSCC(=O)c1ccc2c(c1)Cc1ccccc1-2)Nc1ccccc1` under VACV E9 pol inh: 99.3
# Reading for `Cc1ccc2nc(-c3cccnc3)oc2c1` under VACV E9 pol inh: 91.0
# Reading for `COc1cc2ccc(=O)oc2c(OC(C)=O)c1OC(C)=O` under VACV E9 pol inh: 98.3
# Reading for `CC(C)(C)NCC(O)c1ccc(O)c(CO)c1` (stereo unspecified) under VACV E9 pol inh: 101.2
# Reading for `CC(=O)Oc1c2c(c[n+](C)c1C)COC(C)(C)OC2` under VACV E9 pol inh: 99.9
# Reading for `Cc1cc2cc(CNC(=O)c3ccco3)ccc2n1C` under VACV E9 pol inh: 99.8
# Reading for `CC(=O)Nc1cc(C(=O)NCCCN2CCC(C)CC2)ccc1S(=O)(=O)c1ccc(Cl)cc1` under VACV E9 pol inh: 108.5
# Reading for `CSc1c(C#N)c(-c2cc(C(C)(C)C)oc2C)nn1-c1ccccc1` under VACV E9 pol inh: 100.3

# Some of the entries so far, with tabs:
SMILES	VACV E9 pol inh
CCCNS(=O)(=O)c1ccc2c(c1)SCC(=O)N2	106.0
Cc1ccc(CNC(=O)CC2CCCC2)cc1	90.2
Cc1ccc(Cn2cc(CCC(=O)N3CCc4ccccc43)c3ccccc32)cc1	101.2

# Continuation.
SMILES,VACV E9 pol inh
Cn1c2ccc(F)cc2c2nnc(NN)nc21,100.1
CCSc1ccc2nnc(CCNC(=O)c3ccccc3)n2n1,94.1
N#C/C(=C\C=C\c1ccccc1)c1cccc(C(F)(F)F)c1,100.2
COc1ccc(NC(=O)CSc2ccc3ccccc3n2)cc1,100.6
O=C(Cc1ccccc1)N1CCN(c2nc3ccccc3o2)CC1,98.4
COc1ccc(C2=C/C(=C/c3ccccc3)C(=O)O2)cc1,100.0
CC(C)NC(=O)c1ccc2c(c1)N(Cc1ccccc1F)C(=O)c1ccccc1S2(=O)=O,100.3
Cc1ccc2nc(Sc3ccccc3)c(/C=C3\SC(=S)N(C)C3=O)c(=O)n2c1,100.1
Cc1ccc(S(=O)(=O)CCl)cc1,97.4
O=C(COC(=O)/C=C/c1ccc(I)o1)NC1CC1,82.6
Cc1ccc(C(=O)N/C(=C\C=C/c2ccccc2)C(=O)NCC2CCCO2)cc1 (stereo unspecified),99.7
Cc1ccc(CNCc2c(C(=O)O)c(C)n(Cc3ccccc3)c2C)cc1,100.4
N#CC(C(=O)c1cc2ccccc2o1)c1ccc2ccccc2n1 (stereo unspecified),107.8
CS(=O)(=O)N1CCCN2C(=O)c3ccccc3C21 (stereo unspecified),101.0
Cc1c(/C=C/c2ccc(Cl)cc2Cl)c(=O)n(-c2ccccc2)n1C,99.9
O=C(CSC1=NCCN1)NC12CC3CC(CC(C3)C1)C2,102.5
COC(=O)c1ccc(S(=O)(=O)N(Cc2ccccc2)Cc2ccccc2)n1C,102.2
Cc1cccc(-n2c(O)c(C=Nc3ccccc3)c3ccccc3c2=O)n1,98.9
CCOC(=O)c1cnc(Nc2nc3ccccc3o2)nc1CSc1ccc(C)cc1,91.0
O=C(/C=C/c1ccco1)N(c1ccccn1)c1ccccn1,82.8
COC(=O)c1c(C)sc2c(C(F)(F)F)cc(=O)[nH]c12,109.4
O=C1CC(c2ccccc2)N(c2ccc(Cl)cc2Cl)C(=S)N1 (stereo unspecified),86.8
C=CCn1c(/N=C/c2ccc(OCCC(C)C)cc2)nc2ccccc21,99.6
O=C(NCCOc1ccc(Cl)cc1)c1ccccc1Cl,99.5
O=C1NC2=C(C(=O)c3ccccc32)C(c2ccc(Cl)cc2)S1 (stereo unspecified),98.8
O=C1CSCC(=O)N1c1cccnc1,102.4
CCOC(=O)C(C)Oc1ccc2oc(=O)cc(C)c2c1 (stereo unspecified),100.6
CCc1cc(-c2[nH]ncc2-c2ccc3c(c2)OCCO3)c(O)cc1O,91.4
Cc1ccc(C(=O)NCc2ccc3c(c2)OCO3)cc1C,100.1
COC(=O)c1ccc(N=C2SC(C(=O)O)CC(=O)N2C)cc1 (stereo unspecified),100.8
CCOC(=O)c1cc(C(=O)OC)c(C)nc1N1CCC(NC2CCCCC2O)CC1 (stereo unspecified),102.9
COc1ccc(S(=O)(=O)N2CCC(C)CC2)cc1C(=O)O,99.0
O=C(CCC1(C(=O)O)CCC(=O)NC1)NCc1ccccc1 (stereo unspecified),99.2
O=C(Nc1ccc(-c2nc3c(ccc4ccccc43)o2)cc1)c1ccco1,100.5
CCC/C=C(\CC)C[N+]1(C)CCCCC1,102.6
O=C(O)C1=NN(c2ccccc2)C(=O)/C1=C/c1cccs1,100.9
COc1cc(NC(=O)C2CC(=O)NC3=C2C(=O)CCC3)cc(OC)c1 (stereo unspecified),95.2
CCOC1=NOC2C3CCC(C3)C12 (stereo unspecified),100.8
COc1cc2c(cc1OC)C(COc1ccccc1OC)N(C(C)=O)CC2 (stereo unspecified),99.2
Cc1ccccc1NC(=O)N(Cc1cccs1)C(=O)CC#N,97.8
O=C(Cn1c(SCc2cccc(Cl)c2)nc2ccncc21)NCC1CCCO1 (stereo unspecified),97.6
COC(=O)CCS(=O)(=O)c1nc(-c2cccs2)cc(C(F)(F)F)n1,111.1
Cc1ccc(OCC(=O)N2CCCCC2)c(C)c1,95.4
COc1cccc(-n2ccnc2SCC(=O)NCc2ccc3c(c2)OCO3)c1,96.0
CC(=O)Oc1ccc2c(=O)c(Oc3ccc(Cl)cc3)c(C)oc2c1,83.4
O=C(O)c1c(CNC2CCCC2)c2ccccc2n1Cc1ccccc1,94.4
C=CCNC(=O)c1ccccc1Sc1ccccc1C#N,98.2
CC(=O)Nc1sccc1C(=O)O,91.6
CCc1ccc(NC(=O)C(C)N2C(=O)c3ccccc3C2=O)cc1 (stereo unspecified),99.1
O=C(c1cccc(S(=O)(=O)N2CCCCC2)c1)N1CCCCC1,100.3

# (more compounds)
SMILES,VACV E9 pol inh
O=C(NCC1CC1)Nc1ccccc1,98.3
O=C(COC(=O)c1ccc(N2C(=O)CCC2=O)cc1)Nc1cccc(Cl)c1,100.3
CC1=C(C(=O)OCc2ccccc2)OC(N)=C(C#N)C1c1ccc(F)cc1 (stereo unspecified),101.4
COC(=O)c1sccc1S(=O)(=O)NC1CCS(=O)(=O)C1 (stereo unspecified),76.4
O=C(O)c1ccc(Nc2nnc(-c3ccccc3)c(-c3ccccc3)n2)cc1O,92.0
FC(F)(F)c1nnc2n1Nc1nc3ccccc3nc1S2,99.7
NC(=O)CC1(C(F)(F)F)OCCO1,103.3
COc1cccc(OCC(=O)Nc2c(C(=O)Nc3ccccc3OC)oc3ccccc23)c1,93.6
Cc1csc2ncnc(N3CCN(C(=S)Nc4ccc(F)cc4F)CC3)c12,104.3
O=C(NC(c1ccc2c(c1)OCO2)c1ccc2cccnc2c1O)c1ccccc1 (stereo unspecified),94.9
CC(NC(=O)Cc1ccc(Br)cc1)c1ccccc1 (stereo unspecified),97.3
Cc1cc2c(cc1S(=O)(=O)N1CCCCC1C)OCC(=O)N2 (stereo unspecified),99.9
Clc1ccc(-n2ncc3c(Nc4ccccc4)ncnc32)cc1,100.7
Cn1c(=O)[nH]c2ncn(C)c2c1=O,100.0
COc1ccc(-c2cc(C(F)(F)F)nc(NC(C)c3ccccc3)n2)cc1OC (stereo unspecified),85.9
CC1(C)CC(=O)c2cc3c(N)c(C(=O)Nc4ccccc4)sc3nc2C1,99.2
O=C(Cn1nnc(-c2ccccc2)n1)N(c1ccccc1)c1ccc2ccccc2c1,101.8
c1cc(-c2nnco2)ccn1,97.2
CC1=NC(C(F)(F)F)(C(F)(F)F)C2=C(CC(C)(C)CC2=O)N1C(C)c1ccccc1 (stereo unspecified),88.7
O=C(O)C1CCCCN1S(=O)(=O)c1ccccc1 (stereo unspecified),102.0
CCOc1ccc(N2C(=O)/C(=C/c3ccc(F)cc3)N=C2SC(CC)C(=O)N2CCOCC2)cc1 (stereo unspecified),95.0
Cc1ncsc1CCOC(=O)c1ccccc1,104.8
O=C(CSc1c[nH]c2ccccc12)NCc1ccccc1,99.5
O/N=C/c1c(-c2ccccc2)nc2sccn12,95.1
N#CC1=C(SCC(=O)NC2CC2)NC2=C(C(=O)CCC2)C1c1ccco1 (stereo unspecified),89.5
O=C(COC(=O)c1ccc(-c2ccccc2)cc1)Nc1ccc(F)cc1,105.6
